# Screening data from PubChem BioAssay.
# NPR1 antag: Natriuretic polypeptide receptor (hNpr1) antagonism - Primary qHTS | AID 1347048, 2019 | HEK293 hNpr1 GloSensor cGMP, ANP-stimulated luminescence | Potency, µM (titrated, usually from 46.3 µM), without a hit: top-dose activity change, negative = inhibition, actives largely listed as inhibitors | Atrial natriuretic peptide receptor 1 (Homo sapiens), P16066 | 1.6% of 76,000 active; active = well fitted inhibition curve with a large enough effect; inconclusive = small, poorly fitted or top-dose-only effect; inactive = no such curve, though single readings can be large or run the other way;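 also: nearly all actives have a fitted effect of over 60% in size; nearly all hits also lower the signal before the agonist is added; a reference antagonist and vehicle were the controls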
# Target sequence (P16066 whole entry, looked up): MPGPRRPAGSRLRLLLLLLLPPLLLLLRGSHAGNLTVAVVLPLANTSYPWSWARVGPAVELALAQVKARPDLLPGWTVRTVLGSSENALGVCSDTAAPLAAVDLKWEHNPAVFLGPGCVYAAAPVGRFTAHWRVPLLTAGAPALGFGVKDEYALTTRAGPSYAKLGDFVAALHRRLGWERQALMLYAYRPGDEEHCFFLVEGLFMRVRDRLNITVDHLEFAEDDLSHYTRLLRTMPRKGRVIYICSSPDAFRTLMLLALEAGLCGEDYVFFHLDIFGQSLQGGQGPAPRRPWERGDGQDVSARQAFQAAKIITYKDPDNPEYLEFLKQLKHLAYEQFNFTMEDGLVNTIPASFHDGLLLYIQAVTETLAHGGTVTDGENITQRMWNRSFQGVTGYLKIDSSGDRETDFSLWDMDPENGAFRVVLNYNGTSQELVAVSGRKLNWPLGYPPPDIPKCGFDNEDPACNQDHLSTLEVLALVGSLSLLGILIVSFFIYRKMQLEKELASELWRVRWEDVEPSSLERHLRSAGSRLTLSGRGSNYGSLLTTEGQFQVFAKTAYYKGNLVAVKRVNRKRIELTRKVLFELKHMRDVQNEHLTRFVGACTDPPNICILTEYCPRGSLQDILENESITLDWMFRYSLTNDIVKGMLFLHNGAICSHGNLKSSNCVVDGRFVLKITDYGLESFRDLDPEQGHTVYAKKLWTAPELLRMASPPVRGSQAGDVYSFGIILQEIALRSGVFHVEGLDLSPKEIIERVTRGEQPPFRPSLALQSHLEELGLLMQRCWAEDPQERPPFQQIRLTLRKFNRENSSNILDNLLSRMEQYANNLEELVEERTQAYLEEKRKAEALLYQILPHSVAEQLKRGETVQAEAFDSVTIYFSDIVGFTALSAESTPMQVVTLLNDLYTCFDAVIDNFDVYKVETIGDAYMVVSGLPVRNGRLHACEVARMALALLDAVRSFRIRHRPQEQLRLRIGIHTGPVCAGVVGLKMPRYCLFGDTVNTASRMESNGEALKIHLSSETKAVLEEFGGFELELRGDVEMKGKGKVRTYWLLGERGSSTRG
#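 Compound pre-incubated 30 min at room temperature on GloSensor-loaded HEK293 cells stably carrying hNpr1 and the pGS-40F cGMP biosensor. Stimulation uses hNppA at 0.1 nM final; luminescence is taken at baseline and 20 min post-agonist.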
# * hit, by the source's call; ? = inconclusive; [ ] = another dose, or the depositor's remark. % is scaled to controls: 0 for no effect and ±100 for the full control effect; potency is read from the fitted curve at half-maximal effect. Not all compounds are listed; rates above refer to the full screens.
NPR1 antag,canonical_smiles
1%[70.6 µM],COc1cccc(N2C(=O)N[C@@H]3CCN(S(=O)(=O)c4ccccc4)[C@@H]3C2=O)c1
-1%[70.6 µM],CN1CCC(NC[C@H]2Cn3c(-c4ccc5c(c4)OCCO5)cnc3CO2)CC1
9%,CCOCCN1CCN([C@@H]2c3ccccc3C3(CCNCC3)[C@H]2O)CC1
-11%,COCC(=O)N(C1CCOCC1)C1CCN(C(=O)c2ccncc2)CC1
-2%,COc1ccc(-c2cn3c(n2)N(C(=O)Cc2cccs2)CCC3)cc1
6%,CCn1ncc(CN2C[C@@H](CO)[C@H](NC(C)=O)C2)c1C
1%,CC(=O)Nc1ccc(CN2CCC[C@H]2c2nc(-c3ccnc(NS(C)(=O)=O)c3)no2)cc1
-6%[70.6 µM],COc1cccc(CN2CCC3(C2)NC(=O)c2ccccc2O3)c1 (stereo unspecified)
1%[70.6 µM],COCCn1c(=O)c2c(n1Cc1ccccc1)CN(Cc1ccc3c(c1)CCO3)CC2
1%,CS(=O)(=O)c1ccc(OCC2(CNC(=O)c3cnccn3)C[C@@H](O)[C@@H](O)C2)cc1 (stereo partly specified)
-25%,Cc1ccc(NC(=O)N2CCCCC2c2nc(CCOCC3CC3)no2)cc1C (stereo unspecified)
?,c1ccc2oc([C@H]3CCN(C4CCCCC4)C3)nc2c1
-3%,O=C(Cn1cccc1-c1nc(-c2ccc3c(c2)OCO3)no1)N1CCN(c2ccccc2)CC1
-14%,CCCNc1cc(N2CCC(CCC(=O)NCC)CC2)ncn1
1%[70.6 µM],COCC(=O)Nc1ccc([C@@H](O)[C@H]2COCC(=O)N2Cc2ccncc2)cc1
16µM*,Cc1cc(=O)n(CC(=O)Nc2ccc(C)c(F)c2)c(N2CCc3ccccc3C2)n1
4%,Cc1ccc(C2Cn3nnc(C(=O)N4CCN(C(=O)COc5cccc(C)c5)CC4)c3CO2)cc1 (stereo unspecified)
1%,c1ccc(CCNc2ncncc2-c2nc(-c3ccccc3)no2)cc1
-2%[70.6 µM],COC(=O)[C@H]1CN(C(=O)c2ccc(N(C)C)cc2)CCN1S(C)(=O)=O
-17%[70.6 µM],CCNC(=O)N[C@H]1CO[C@H]2[C@@H]1OC[C@H]2OC(=O)Nc1cccc(C(F)(F)F)c1
10%,NC(=O)c1cc[nH]c1C1CCCN(C(=O)COc2ccc(Cl)cc2)C1 (stereo unspecified)
-2%,C[C@]1(CO)[C@H]2Cc3sc(NC(=O)c4c(F)cccc4F)nc3[C@@H](CC(=O)NCc3ccccc3)[C@]2(C)CC[C@H]1O
5%,O=C(O)c1ccccc1C(=O)N[C@H]1CO[C@H]2[C@@H]1OC[C@@H]2n1nnnc1Oc1ccc(-n2ccnc2)cc1
2%,COc1cc(OC)c(NC(=O)N2CCCC2c2nncn2C2CCCC2)cc1Cl (stereo unspecified)
1%,COCCNS(=O)(=O)c1cccc2c1CN(C(=O)CCn1cncn1)CC2
1%[70.6 µM],COCCOc1ncccc1-c1noc([C@@H]2CCCN2Cc2cccc(C#N)c2)n1
3%,COc1ccc(N2Cc3c(ncnc3N3CCN(c4ncccn4)CC3)N(C)CC2=O)cc1
2%,CCNC(=O)N1CCCC(n2c(C)cnc2C2CC2)C1 (stereo unspecified)
-1%,COc1ccc(CN2CCc3oc(C)c(C(=O)NCCN4CCCC4)c3C2)cc1
1%,OCC1CN(c2ccncn2)CC12CCN(C1CCSCC1)CC2 (stereo unspecified)
-7%[70.6 µM],CSCC(=O)N[C@H]1CCN2C(=O)c3cc(-c4ccsc4)ccc3NC(=O)[C@H]12
-2%,CN1CCCN(C(=O)c2cc(F)ccc2F)c2ccccc21
-13%,COc1ccc(C(=O)NCC2c3cc(OC)c(OC)cc3CCN2C(=O)Nc2ccccc2F)cc1 (stereo unspecified)
-1%,COc1ccc(-c2ccc3c(c2)C(=O)N2CC[C@H](n4nnc(C(N)=O)c4C(N)=O)C[C@H]2C(=O)N3)c(OC)c1
-8%,COCC(=O)N[C@@H]1CN(S(=O)(=O)Cc2ccccc2)CC[C@@H]1c1nc(C)no1
1%,CC(C)c1noc([C@H]2C[C@@H]3C(=O)NCCCCCCN(C(=O)Cc4ccccc4)[C@@H]3C2)n1
-2%,Cc1nnc2ccc(NCc3ccccc3F)nn12
6%,CNC(=O)[C@@H]1CN(C(=O)c2cccc(C)n2)C[C@H]1COC
-1%,CC(=O)N1CCC(Cc2ccc(C(=O)O)cc2)CC1
1%,CN1Cc2cccn2CC1CNC(=O)C1(S(=O)(=O)c2ccc(Cl)cc2)CC1 (stereo unspecified)
7.9µM*,O=C(Cc1c[nH]c2ncc(-c3ccccc3C(F)(F)F)cc12)NCc1cccnc1
-13%,Cc1noc(C)c1[S+](=O)([O-])N1CCCC(c2nn(-c3ccc(F)cc3)c(=O)[nH]2)C1 (stereo unspecified)
-1%[70.6 µM],CC(C)CN1C(=O)COC[C@@H]1[C@H](O)c1ccc(NC(=O)C2CCCC2)cc1
2%[70.6 µM],CN1CCC(Cn2ccc3c(N4CCOCC4)nc(-c4ccc5cn[nH]c5c4)cc32)CC1
-11%,Cn1cnc(S(=O)(=O)N2CCCN(C3CCOCC3)CCNC(=O)CC2c2ccccc2)c1 (stereo unspecified)
2%,COc1ccc(-c2noc([C@@H]3CCCN3C(=O)Cc3ccccc3)n2)cc1OC
2%,COc1ccc(-c2nc(C(C)C)nc3c2CCN([S+](=O)([O-])c2ccc(C)cc2)CC3)cc1
5%[70.6 µM],CC[C@H]1CN(C(=O)c2ccnc(Cl)c2)CC[C@H]1CC(=O)N1CCC(C(N)=O)CC1
2%,CCn1cnnc1-c1nn(C)c2c1CN(C(=O)CCC(=O)N1CC(=O)Nc3ccccc31)CC2
-2%,CCCn1c(C)cnc1C1CCN(C(=O)NC(C)C)C1 (stereo unspecified)

# Other compounds
NPR1 antag,canonical_smiles
2%[70.6 µM],COCc1cc(C[C@@H]2C[C@H](NC(=O)Nc3ccccc3)C2(C)C)no1
3%,CC(C)n1ccnc1C1CCCN(S(=O)(=O)c2ccccc2Cl)C1 (stereo unspecified)
4%,COc1ccc(NC(=O)Cn2c(C)cc3nc4n(c(=O)c32)CCC4)c(OC)c1
?,COc1cccc(-c2nnnn2[C@H]2CO[C@H]3[C@@H]2OC[C@@H]3NC(=O)c2ccc(C(F)(F)F)cc2)c1
-19%,COCCn1ncc(N2CCCC(CC(=O)NCc3ccc(Cl)cc3)C2)cc1=O (stereo unspecified)
6%,O=C(Nc1cccc(-n2cccn2)c1)C1CCCN1C(=O)C1CCC1 (stereo unspecified)
-4%,O=C(Cc1ccc(F)cc1)N1CN=C(C2CCN(Cc3ccc(F)cc3)CC2)N1
-1%,O=c1n(CC2CC2)nc2n1CCC(NS(=O)(=O)c1cccc(F)c1)CC2 (stereo unspecified)
4%,CN1CC2(CCCN(C(=O)CCc3ccncc3)CC2)OC1=O (stereo unspecified)
-1%,COc1ccc(CNC(=O)N2CCc3c(nc(-c4ccc(OC)cc4)[nH]c3=O)C2)cc1
13µM*,COc1ccc(CNC(=O)c2noc(-c3ccc(C)cc3)n2)cc1OC
6%,CCc1nc2cc(N3CCCC(C(=O)NC4CCCC4)C3)cnc2nc1CC (stereo unspecified)
3%,CCN1C(=O)C2CC3(CCN(Cc4cn[nH]c4-c4cccs4)CC3)CN2C1=O (stereo unspecified)
8%,O=C(N[C@@H]1CCOC[C@H]1OCc1cscn1)c1ccc(N2CCCC2=O)cc1
-2%,CC(=O)Nc1ccc(CN(Cc2ccc(NC(C)=O)cc2)C[C@H]2C[C@@H]3CCN2C[C@@H]3c2cc(-c3ccco3)nc(C)n2)cc1
2%,NCC1CCN(C(=O)c2cnc(C34CC5CC(CC(C5)C3)C4)[nH]c2=O)C1 (stereo unspecified)
-3%[70.6 µM],CNC(=O)C1=NO[C@@H]2CN(CCc3ccccc3)C[C@H]12
-5%,Cc1c(-c2ccccc2F)[nH]c2ccc(CNC(=O)C3CCCN(C(N)=O)C3)cc12 (stereo unspecified)
4%,CCN1c2cc(C(=O)Nc3ccc(C(C)C)cc3)ccc2C(=O)N2CCCCCC21 (stereo unspecified)
5%[70.6 µM],Cc1cc(C)c(CNC(=O)c2nc(-c3ccc(CN(C)C)cc3)cc3[nH]ccc23)c(=O)[nH]1
-1%,O=C(c1ccc(OC2CCN(C(=O)c3cccc(F)c3)CC2)nc1)N1CCOCC1
?,O=C(c1cc(Cl)ccc1F)N1CCN(C(=O)c2nnn3c2COC(c2ccccc2)C3)CC1 (stereo unspecified)
4%[70.6 µM],O=C(c1ccccc1)N1C[C@@H]2OCC(=O)N(c3ccccc3)[C@@H]2C1
-2%,Cc1cc(C(=O)NCC2Cn3cccc3C(=O)N2CC(C)C)nn1C (stereo unspecified)
?,Cc1cccc(N2CCN(C(=O)c3cc4n(n3)CC(c3ccc(Cl)cc3)OC4)CC2)c1 (stereo unspecified)
1%,COC(=O)CNC(=O)N1CCCCC1c1nc(CCOc2ccc(F)cc2)no1 (stereo unspecified)
-2%[70.6 µM],CN(C)C(=O)c1ccc(-c2ccc3ncn(-c4ccc(F)cc4F)c(=O)c3n2)cc1
-3%,CCOCCC(=O)N1CCCC(c2nnc(CN3CCCC3)n2C)C1 (stereo unspecified)
3%,O=C(O)C(c1cccc(O)c1)N1CCN(C2CCCCC2)C(=O)C1 (stereo unspecified)
9%,O=C(c1cn2ccccc2n1)N1C[C@@H](CO)[C@H](c2ccncc2)C1
0%,CN(C)CC1(O)CCC2(CCN(S(=O)(=O)c3ccccc3)CC2)CC1
0%,Cc1cccc(-n2nc(-c3c(C)nc4scc(CC(=O)N5CCCC5)n4c3=O)cc2C)c1
0%,COc1ccccc1N1CCN(CC[C@H]2CN(C(=O)N3CCOCC3)CC[C@H]2CC(=O)O)CC1
11µM*,O=C(Nc1ccc(Oc2ccccc2)cc1)O[C@@H]1CO[C@H]2[C@@H]1OC[C@@H]2NC(=O)c1ccccn1
4%,CCCC(=O)N1CCC(N2C(=O)C3(CCCCC3)C2c2ccccc2)CC1 (stereo unspecified)
-3%,COc1ccc(F)cc1CN1CCc2[nH]cnc2C1c1cccc(C#N)c1 (stereo unspecified)
-6%,Cc1ccccc1-c1noc(-c2nnn3c2COC(c2ccc(F)cc2)C3)n1 (stereo unspecified)
4%,O=C(NCc1ccc2c(c1)OCO2)c1cnc2c(c1)N([S+](=O)([O-])c1cccnc1)CCC2
3%,O=S1(=O)CCN(Cc2cn(C[C@H]3C[C@@H](NCc4cccnc4)[C@H](O)[C@@H]3O)nn2)CC1
0%,Cc1cccc(CN(C)C(=O)c2cc(-c3cnc(C)nc3)nc3cc(F)ccc23)n1
4%,CS(=O)(=O)N1CCCN(C(=O)C2CCCCC2)CCNC(=O)CC1c1ccccc1 (stereo unspecified)
-21%,COc1ccc2cc(C3CN(Cc4cc5n(n4)CCNC5)CCO3)ccc2c1 (stereo unspecified)
-15%[70.6 µM],CC(C)c1ccc(NC(=O)N[C@H]2CO[C@H]3[C@@H]2OC[C@H]3OCc2ccccc2)cc1
-2%,Cc1ccc(CN2CCc3nc(N(C)Cc4cccnc4)[nH]c(=O)c3CC2)o1
2%,CCNC(=O)Nc1ccc(OCC(=O)NCc2ccccc2OC)nc1
-5%,O=C(c1cccnc1)N1CCC(n2cc(-c3nc(-c4ccccc4)no3)nn2)CC1
-6%[70.6 µM],C[C@H]1CCCN1C(=O)c1nnc(CNCc2cccc(Cl)c2)n1-c1ccccc1
2%,Cc1cccc(OCC(=O)N[C@@H]2CN(c3ncccn3)C[C@H]2CO)c1
6%,O=C1CCN(C(=O)C2CCN(C(=O)C3(c4ccccc4)CC3)CC2)CCCCCCN1
1%,CN(Cc1ccccn1)C(C(=O)O)c1cnn(Cc2ccccc2)c1 (stereo unspecified)

# Next section
NPR1 antag,canonical_smiles
7%,O=C(NCc1cccs1)c1nc(-c2cc(Cl)cc(Cl)c2)c2ccccn12
3%,CC(C)C1CN(c2ccc(C#N)cn2)CCC(=O)N1Cc1ccc(F)cc1 (stereo unspecified)
-8%,COc1cc(CCC(=O)N2C[C@@H](C(N)=O)[C@H](c3nc(C)no3)C2)on1
-6%,Cc1cc(C)cc(C(=O)N2CCC(c3n[nH]c(=O)n3-c3ccccc3)CC2)c1
0%,O=C(O)Cn1nc(C2CC2)nc1CCCN1CCCC1=O
3%,CC(C)N1C(=O)C2(CCCC2)C1C(=O)NCCN1CCC(N2CCCCC2)CC1 (stereo unspecified)
